HSV augment: increases HSV replication in cells; maximum fold increase; HSV replication augmentation in cells, fold increase; 0.005% of 220,000 active;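 active = peak rise of 1.5-fold or more in the series; inconclusive = self-fluorescent or not available for retest; tested in PC3 cells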;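 note: first round at 10 µM; read as green reporter fluorescence; hits show the peak of a series up to 25 µM; 1 = signal of infected wells without compound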
PKD1 kinase inh: PKD1 (human) kinase inhibition; PKD1 kinase fluorescence polarization assay; Q15139; inhibition, %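 (about 10 µM by stock and volumes)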; AID 797; 0.056% of 200,000 active;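 active = inhibition of 50% or more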;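 note: controls were vehicle for no effect and a reference inhibitor for full effect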
Target sequence (Q15139 whole entry, looked up): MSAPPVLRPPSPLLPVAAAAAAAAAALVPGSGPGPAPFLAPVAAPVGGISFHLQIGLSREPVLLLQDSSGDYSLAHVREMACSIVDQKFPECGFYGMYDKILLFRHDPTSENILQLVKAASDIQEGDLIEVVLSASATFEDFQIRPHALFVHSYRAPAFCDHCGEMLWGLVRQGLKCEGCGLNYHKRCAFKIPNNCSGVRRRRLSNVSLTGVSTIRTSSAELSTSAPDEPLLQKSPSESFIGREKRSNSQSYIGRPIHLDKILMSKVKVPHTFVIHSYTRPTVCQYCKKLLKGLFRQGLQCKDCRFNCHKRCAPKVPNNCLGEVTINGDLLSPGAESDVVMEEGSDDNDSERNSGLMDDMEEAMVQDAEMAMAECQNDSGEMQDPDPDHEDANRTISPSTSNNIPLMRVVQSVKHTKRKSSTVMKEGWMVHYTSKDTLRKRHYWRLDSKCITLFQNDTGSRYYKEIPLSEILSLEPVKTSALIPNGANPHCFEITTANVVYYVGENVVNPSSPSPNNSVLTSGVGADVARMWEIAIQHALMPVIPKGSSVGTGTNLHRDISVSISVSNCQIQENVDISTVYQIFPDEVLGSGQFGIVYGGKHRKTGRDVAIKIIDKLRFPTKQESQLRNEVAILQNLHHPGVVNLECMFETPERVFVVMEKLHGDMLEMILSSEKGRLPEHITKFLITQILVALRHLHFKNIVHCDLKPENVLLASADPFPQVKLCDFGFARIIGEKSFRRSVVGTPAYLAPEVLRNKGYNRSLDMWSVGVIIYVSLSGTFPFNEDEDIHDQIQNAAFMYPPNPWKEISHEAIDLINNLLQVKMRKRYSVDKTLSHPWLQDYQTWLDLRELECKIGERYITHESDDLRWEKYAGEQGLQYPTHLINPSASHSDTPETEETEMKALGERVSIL
RGS16-Gao: RGS16-Galphao interaction regulator (human); bead-based flow cytometry RGS16-Galphao binding, fluorescence; actives lie on both sides; binding response (% of control), % at 10 µM; 0.38% of 220,000 active;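 active = below 25% or above 175%, edge rows of some plates excepted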;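 note: Galphao activated by GDP with aluminum fluoride before binding; 100% = wells without compound and 0% = beads without RGS; some results beyond the cut were filed as inactive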
Insulin prom inh: TRM-6 insulin promoter activity inhibition; TRM-6 cells (human fetal islet line), insulin promoter-eGFP reporter, imaging; reporter expression induced with tamoxifen; inhibition, % at 2 µM; 0.9% of 130,000 active; AID 1273;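 active = inhibition above the mean plus 3 SD, with well images judged a real hit on visual review, cut at about 60% in these data, passing the limit was not always enough; inconclusive = inhibition over the cutoff but images rejected on review; inactive = inhibition not above the cutoff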
GALR2 ag: activates the human galanin receptor 2. GALR2-expressing cells, agonist activation read-out. 0.48% of 140,000 active. O43603. activation, %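 (tested at 5 µM)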;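 active = above mean plus 3 SD of all compounds, about 5% in these data, not always enough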;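 note: 0% = vehicle buffer wells and 100% = reference agonist at full effect; tested in CHO reporter cells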
Insulin prom inh cell count: further read-out of Insulin prom inh, marked with its call; normalized cell count, %; measured here: cell count, toxicity; reference of the scale not given here;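 cells exposed to compound for 48 h; stained nuclei by imaging scaled within each plate; lower means fewer cells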
HSV augment primary fold: further read-out of HSV augment, marked with its call; fold increase; compound at 10 µM; measured here: primary screen fold increase 10 uM; tested in PC3 cells;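 GFP signal in the first replicate; 1 = infected wells without compound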
* marks the source's active call; other numbers are inactive results; i = inactive; ? = inconclusive; . = no result given.

entry | SMILES | HSV augment | HSV augment primary fold | PKD1 kinase inh | RGS16-Gao | Insulin prom inh | Insulin prom inh cell count | GALR2 ag
1 | Cn1c(N)c(C(=O)COC(=O)c2cccs2)c(=O)n(C)c1=O | i | 1 | -1 | 106 | . | . | -0.8
2 | Cc1nnc(NC(=O)C2C3C=CC(O3)C2C(=O)O)s1 (stereo not given) | i | 1 | -5 | 98 | 21 | 155 | -2.8
3 | Cc1nc(NC(=O)COC(=O)C(NC(=O)c2ccco2)C(C)C)c(Cl)cc1Cl (stereo not given) | i | 0.93 | -11 | 110 | 0 | 76 | -2.3
4 | CCC(=O)NC(Nc1cc(C)ccn1)(C(F)(F)F)C(F)(F)F | i | 0.97 | -8 | 108 | 14 | 136 | -0.8
5 | Cc1ccc(SC[C@H](CC(C)C)N2CCN(CCc3ccccc3)CCC2=O)cc1 | i | 1 | . | 106 | . | . | .
6 | CCOC(=O)c1ccc(NC(=S)Nc2ccc(Cl)cn2)cc1 | i | 0.92 | -6 | 103 | . | . | .
7 | Clc1ccc(Cn2ccc(-c3ccc4c(c3)OCO4)n2)cc1Cl | i | 0.82 | -10 | 96 | -4 | 99 | -3.4
8 | CN(C)c1nc(NC(C)(C)C)nc(NC(C)(C)C)n1 | i | 0.88 | 0 | 94 | 33 | 89 | .
9 | COc1ccc(CCc2cc(OC)cc(=O)o2)cc1 | i | 1 | . | 95 | . | . | .
10 | COc1cc(/C=C2/SC(=S)N(CC(=O)NC(C)(C)C)C2=O)cc(OC)c1OC | i | 0.92 | -4 | 85 | 20 | 98 | -0.1
11 | CCOC1=NN(c2ccc(Cl)cc2)C(=O)/C1=C\N(C)C | i | 0.94 | 2 | 95 | 54 | 154 | .
12 | CCOP(=O)(OCC)C(NC(=O)C(F)(F)F)c1ccccc1 (stereo not given) | i | 1.1 | -6 | 101 | . | . | -0.9
13 | COc1cc(/C=C2\CC/C(=C\c3cc(OC)c(O)c(OC)c3)C2=O)cc(OC)c1O | i | 1.1 | 2 | 68 | 8 | 60 | -1.7
14 | COC(=O)CNc1n[nH]c(=S)[nH]c1=O | . | . | 6 | 101 | . | . | -0.6
15 | CC[C@@H](C)C(C(=O)N1CCN(C(=O)OC(C)(C)C)CC1)n1cc(-c2cn([C@@H](C)C(=O)N3CCN(C(=O)OC(C)(C)C)CC3)nn2)nn1 (stereo not given in full) | i | 0.83 | . | 105 | . | . | .
16 | Cc1ccccc1NCC(=O)N/N=C/c1c(C)c(C(=O)c2ccc(Cl)cc2)n2ccccc12 | i | 0.89 | 1 | 102 | 36 | 86 | -0.9
17 | Cc1ccc(NC(=O)CSC2=C(C#N)C(c3ccco3)C3=C(CC(C)(C)CC3=O)N2)cc1 (stereo not given) | i | 0.89 | 3 | 111 | 4 | 141 | -0.6
18 | Cc1ccccc1C1CCCN(Cc2nc(CC3CC3)no2)C1 (stereo not given) | i | 0.85 | -1 | 99 | -12 | 118 | .
19 | Cn1cc([N+](=O)[O-])c(C(=O)Nc2cnn(Cc3ccc(F)cc3)c2)n1 | i | 0.56 | 19 | 64 | 69* | 112* | -1.4
20 | O=C(O)c1cccc(Cn2c(Cl)c(/C=N/NC(=O)c3ccccc3O)sc2=O)c1 | i | 1.3 | . | 98 | . | . | .
21 | CCOc1cc(C(=O)N(C)c2ccccc2)cc(OCC)c1OCC | i | 0.93 | -2 | 120 | -158 | 93 | -2.5
22 | CCCCCCCC(=O)NNC(=O)c1ccc([N+](=O)[O-])cc1 | i | 0.97 | 2 | 127 | -100 | 100 | -2.2
23 | CC(C)C[C@H](NC(=O)c1nc[nH]c1C(=O)NCCCCCNC(=O)OC(C)(C)C)C(=O)OCc1ccccc1 | i | 1 | -5 | 100 | . | . | .
24 | CC(C)Cn1c(N)c(C(=O)NCC2CCCO2)c2nc3ccccc3nc21 (stereo not given) | i | 1.1 | -5 | 101 | 6 | 74 | 12*
25 | Cc1ccsc1C(=O)OCC(=O)Nc1c(Cl)cccc1C(F)(F)F | i | 0.99 | -3 | 93 | -7 | 81 | -1.8
26 | CCc1ccc(-c2nc(CN3CCC(C(=O)NCc4ccc(F)cc4)CC3)c(C)o2)cc1 | i | 0.74 | 5 | 100 | . | . | -1.4
27 | CCn1ncc(/C=N\NC(=O)c2cc(-c3ccc(C)cc3C)nc3ccccc23)c1C | i | 0.92 | -6 | 99 | 33 | 144 | -1.9
28 | COC(/C=C/Nc1ccc(C)cc1)=C(C#N)C#N | i | 0.88 | 11 | 96 | 16 | 125 | -2.9
29 | NC(=O)COC(=O)c1cccnc1Nc1ccccc1F | i | 0.87 | 5 | 103 | . | . | .
30 | C=CCn1c(SCC(=O)Nc2c(C)n(C)n(-c3ccccc3)c2=O)nc2scc(-c3ccccc3)c2c1=O | i | 0.79 | -14 | 96 | -32 | 84 | 0.1
31 | CN(C)S(=O)(=O)c1ccc(C(=O)NNc2nc(-c3ccccc3)c3cc(Br)ccc3n2)cc1 | i | 0.97 | -1 | 102 | 6 | 167 | 0.4
32 | O=C1C[C@H]2[C@H](CO)[C@@H](OC(=O)c3ccc(-c4ccccc4)cc3)C[C@H]2O1 | i | 0.94 | . | 102 | . | . | .
33 | COc1ccc(CC(NC(C)=O)C(=O)NC2CCN(c3nnnn3-c3ccccc3)CC2)cc1OC (stereo not given) | i | 0.83 | -2 | 107 | -70 | 129 | .
34 | COc1ccccc1CNC(=O)C(C)Sc1ccsc1[N+](=O)[O-] (stereo not given) | i | 0.88 | -1 | 111 | 0 | 83 | .
35 | COc1cccc(CNC(=O)C2CCN(S(=O)(=O)N3CCCC3)CC2)c1 | i | 0.97 | -12 | 103 | 16 | 107 | -1.3
36 | O=C1SC(Cc2ccccc2)C(=O)N1c1ccccc1 (stereo not given) | i | 1.2 | . | 103 | . | . | .
37 | O=C1CN(C(=O)COC(=O)CNC(=O)c2ccc(Br)o2)c2ccccc2N1 | i | 1 | -2 | 84 | -36 | 35 | .
38 | CCN(C(=O)CSc1nnnn1-c1ccccc1)c1c(N)n(Cc2ccccc2)c(=O)[nH]c1=O | i | 1 | 9 | 109 | -34 | 64 | -0.9
39 | O=S(=O)(Nc1nccs1)c1ccc(Nc2nnc(-c3ccccc3)c3ccccc23)cc1 | i | 0.89 | 5 | 98 | . | . | -1.9
40 | COC(=O)C1CCN(C(=O)COC(=O)COc2ccc(C#N)cc2)CC1 | i | 0.73 | 5 | 94 | . | . | .
41 | CCOC(=O)c1c(NC(=O)c2ccno2)c2cc([N+](=O)[O-])ccc2n1C | i | 1.1 | . | 103 | . | . | .
42 | Nn1c(Cc2cccc3ccccc23)n[nH]c1=S | i | 0.92 | -1 | 96 | 15 | 90 | .
43 | S=C(Nc1ccc(Cl)cc1Cl)NC1CCN(Cc2ccccc2)CC1 | i | 0.84 | -4 | 101 | . | . | 0.1
44 | C/C(=N\OC(=O)c1ccccc1)c1cc(-c2ccc(Cl)cc2)no1 | i | 1 | -6 | 99 | 20 | 54 | -2.5
45 | Cc1ccc(CNC(=O)Nc2cccc(C)c2)cc1 | i | 0.91 | 7 | 103 | . | . | .
46 | CCOc1ccc(C2NC(=O)C(C#N)=C(S)N2c2ccc(C)cc2)cc1OC (stereo not given) | i | 1 | -3 | 102 | -36 | 147 | 1.1
47 | O=C(NCc1ccccn1)c1ccc(CS(=O)(=O)Cc2ccc(Cl)cc2)o1 | i | 1.1 | -2 | 100 | -67 | 146 | -1.1
48 | N/C(=N\OC(=O)Cc1ccccc1)c1ccccc1Cl | i | 1 | -1 | 106 | -62 | 95 | .
49 | N/C(=N\OC(=O)Cc1ccc(Cl)cc1)c1ccccn1 | i | 0.93 | -3 | 97 | -8 | 135 | -0.9
50 | COc1ccc(N2CC(O)=C(c3nc(-c4ccc(F)cc4)cs3)C2=N)cc1OC | i | 0.9 | 0 | 101 | . | . | .
51 | Cc1ccc(/C=C/C2=NN(Cc3ccccc3Cl)C(=O)CC2)cc1 | i | 0.94 | -2 | 103 | . | . | 1.9
52 | O=C(Nc1ccc2c(c1)OCCO2)c1ccc(Cl)c(S(=O)(=O)N2CCCCC2)c1 | i | 0.95 | -12 | 97 | -18 | 161 | -0.6
53 | CCOC(=O)C1CCCN(C(=O)c2ccco2)C1 (stereo not given) | i | 1.1 | -5 | 101 | 33 | 128 | -3.4
54 | COc1ccc(-n2ncc3c(Nc4cccc(C)c4)ncnc32)cc1 | i | 0.76 | 1 | 111 | 25 | 133 | -0.5
55 | COc1ccc(S(=O)(=O)Nc2ccc3c(c2)OCO3)cc1C(=O)O | i | 0.9 | -2 | 104 | . | . | -2.7
56 | COc1cc(OC)cc(N2C(=O)CSCC2=O)c1 | i | 0.89 | . | 98 | . | . | .
57 | Cc1ccc(NC(=O)C(=O)C2C(=O)Nc3ccccc32)cc1 (stereo not given) | i | 0.97 | . | 98 | . | . | .
58 | Cc1ccc2sc3ccc(NC(=O)c4ccccc4Cl)cc3c(=O)c2c1 | i | 0.7 | -1 | 103 | -20 | 107 | 6.6
59 | COc1ccccc1C1/C(=C(/O)c2ccccc2)C(=O)C(=O)N1CC(C)O (stereo not given) | i | 0.93 | 10 | 104 | . | . | -0.1
60 | C=CCN(CC=C)C(=O)C(=O)c1ccn(-c2c(C)csc2C(=O)OC)c1 | i | 1.4 | 6 | 94 | . | . | .

(further entries)
entry | SMILES | HSV augment | HSV augment primary fold | PKD1 kinase inh | RGS16-Gao | Insulin prom inh | Insulin prom inh cell count | GALR2 ag
61 | C/C(Cc1ccccc1)=N\NC(=O)CNC(=O)c1cccc(Br)c1 | i | 0.99 | 6 | 86 | 19 | 89 | -1.0
62 | COC(=O)/C=C/c1ccc(OC(=O)OC)c(OC(=O)OC)c1 | i | 1.1 | 3 | 99 | . | . | 0.4
63 | CC[n+]1ccccc1/C=C/c1ccc(N(C)C)cc1 | . | . | -7 | 100 | -200 | 118 | .
64 | O=C(Nc1ccc2c(c1)CCC2)C1CCN(c2ncccn2)CC1 | i | 0.96 | 1 | 103 | 9 | 109 | -0.1
65 | Cc1c(N2C(=O)CS/C2=N\N=C\c2ccccc2O)c(=O)n(-c2ccccc2)n1C | i | 1 | -4 | 100 | -3 | 119 | -1.5
66 | O=S(=O)(c1cnccc1N1CCN(/N=C/c2ccc(Br)cc2)CC1)N1CCCCC1 | i | 0.91 | -9 | 111 | 23 | 109 | -1.2
67 | O=C(NCc1ccccc1)c1csc(-c2cccnc2)n1 | i | 0.98 | . | 118 | . | . | .
68 | CC(=O)Oc1ccccc1C1C[C@]2(C)CC(=O)NC2N1C(C)=O (stereo not given in full) | i | 0.9 | -2 | 104 | . | . | .
69 | CC(C)Oc1ccc(OCCNC2CCCC2)cc1 | i | 1 | -1 | 100 | 14 | 56 | -1.4
70 | c1ccc(-c2nnsc2Sc2ccccn2)cc1 | i | 0.97 | 3 | 101 | . | . | .
71 | CSc1ccc(S(=O)(=O)N2CCN(Cc3ccc4c(c3)OCO4)CC2)cc1 | i | 1.3 | 1 | 101 | 29 | 80 | -2.2
72 | COc1cc(C(=O)Nc2ccc(S(=O)(=O)N3CCOCC3)cc2)c([N+](=O)[O-])cc1OC | i | 0.97 | 7 | 101 | . | . | .
73 | Cn1c(SCc2ccc(Br)cc2)nnc1-c1ccccn1 | i | 0.97 | . | 99 | . | . | .
74 | S=C(NC1CC1)NC1CCCc2ccccc21 (stereo not given) | i | 0.95 | -2 | 115 | -19 | 113 | .
75 | CCOC(=O)C1(Cc2cccc(OC)c2)CCN(Cc2ccon2)CC1 | i | 1 | . | 104 | . | . | .
76 | Cc1c(-n2cc(C(=O)c3cc(Cl)ccc3O)cc(C#N)c2=O)c(=O)n(-c2ccccc2)n1C | ? | . | -3 | 85 | -20 | 105 | -1.6
77 | COc1ccc(Cc2nnc(N/N=C/c3ccc(O)cc3O)[nH]c2=O)cc1OC | i | 0.8 | 14 | 102 | 19 | 114 | -1.4
78 | Cc1nn(-c2ccccn2)c2nc(-c3cccs3)cc(C(=O)NCc3ccco3)c12 | ? | . | 2 | 79 | 9 | 36 | -2.8

Complete entries, quoted from the list. Order of values: HSV augment, HSV augment primary fold, PKD1 kinase inh, RGS16-Gao, Insulin prom inh, Insulin prom inh cell count, GALR2 ag
Entry for `O=S(=O)(c1cnccc1N1CCN(/N=C/c2ccc(Br)cc2)CC1)N1CCCCC1` → i, 0.91, -9, 111, 23, 109, -1.2
Entry for `CCOC(=O)C1(Cc2cccc(OC)c2)CCN(Cc2ccon2)CC1` → i, 1, ., 104, ., ., .
Entry for `C/C(Cc1ccccc1)=N\NC(=O)CNC(=O)c1cccc(Br)c1` → i, 0.99, 6, 86, 19, 89, -1.0
Entry for `COC(=O)/C=C/c1ccc(OC(=O)OC)c(OC(=O)OC)c1` → i, 1.1, 3, 99, ., ., 0.4
Entry for `O=C(Nc1ccc2c(c1)CCC2)C1CCN(c2ncccn2)CC1` → i, 0.96, 1, 103, 9, 109, -0.1
